Screens: PubChem, several laboratories
Calb FLC: C. albicans growth inhibition with fluconazole, primary screen, CaCi-2 strain, Alamar Blue fluorescence. C. albicans CaCi-2 (fluconazole-resistant clinical isolate) + fluconazole, 48 h. growth inhibition, % (no concentration beside the values). 300,000 compounds, 0.57% hits. AID 1979, 2009;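 active means most replicates above 75%; inconclusive means exactly half above 75%; inactive means most below 75%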;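 further: all wells also contain fluconazole at 8 µg/ml as a sub-toxic cotreatment; 0% = median of DMSO wells and 100% = median of geldanamycin control wells; wells of about 8 µL received 7.5 nL stock; the first replicate is given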
Beta cell apopt: inhibitors of cytokine-induced beta cell apoptosis, primary screen, luminescence | 300,000 compounds, 0.8% hits | INS-1E cytokine-induced death, ATP luminescence, 48 h; percent of positive-control rescue, neutral wells zero | AID 435005, 2010 | protection from apoptosis, % (no concentration beside the values);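 active means all replicates at 75% or more, or half of them and the mean; inconclusive means half reach 75% but not the mean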;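 further: 0% = cytokine-treated negative control wells and 100% = positive control rescue; higher means more ATP so stronger rescue from cytokine killing; wells of about 40 µL received 100 nL stock; the first replicate is given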
MLL AF4-AF9 inh: inhibitors of AF4 peptide binding to AF9, primary screen, biochemical, AlphaScreen, biotin-AF4 peptide, FLAG-AF9, single point; Protein AF-9 (Homo sapiens), P42568; inhibition, % at 10 µM; 350,000 compounds, 0.47% hits;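 active means every replicate reaching a set inhibition limit, whatever the replicate mean, cut at about 25% in these data; inconclusive means mean inhibition reaches that limit but some replicates miss it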;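 further: 0% = plate neutral control median and 100% = total signal loss; the record names both 10 and 1 µM as test concentration; the first replicate is given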
LANA-H2B inh: blockers of LANA interaction with H2A/H2B – biochemical, FP readout, HTS, primary screen; cell-free LANA-H2A/H2B peptide, fluorescence polarization; inhibition, % (concentration not given with the values); 320,000 compounds, 0.6% hits; AID 2629, 2010; in the data active means inhibition mostly above about 10%, no sharp cut-off; inactive means mostly below about 6.7%;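 further: stock transfer was 7.5 nL into about 10 µL; 0% = median of vehicle wells and 100% = median of positive control wells; one replicate is shown; the record names a cut of 25% in any replicate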
Target sequence (Q9QR71 whole entry, looked up): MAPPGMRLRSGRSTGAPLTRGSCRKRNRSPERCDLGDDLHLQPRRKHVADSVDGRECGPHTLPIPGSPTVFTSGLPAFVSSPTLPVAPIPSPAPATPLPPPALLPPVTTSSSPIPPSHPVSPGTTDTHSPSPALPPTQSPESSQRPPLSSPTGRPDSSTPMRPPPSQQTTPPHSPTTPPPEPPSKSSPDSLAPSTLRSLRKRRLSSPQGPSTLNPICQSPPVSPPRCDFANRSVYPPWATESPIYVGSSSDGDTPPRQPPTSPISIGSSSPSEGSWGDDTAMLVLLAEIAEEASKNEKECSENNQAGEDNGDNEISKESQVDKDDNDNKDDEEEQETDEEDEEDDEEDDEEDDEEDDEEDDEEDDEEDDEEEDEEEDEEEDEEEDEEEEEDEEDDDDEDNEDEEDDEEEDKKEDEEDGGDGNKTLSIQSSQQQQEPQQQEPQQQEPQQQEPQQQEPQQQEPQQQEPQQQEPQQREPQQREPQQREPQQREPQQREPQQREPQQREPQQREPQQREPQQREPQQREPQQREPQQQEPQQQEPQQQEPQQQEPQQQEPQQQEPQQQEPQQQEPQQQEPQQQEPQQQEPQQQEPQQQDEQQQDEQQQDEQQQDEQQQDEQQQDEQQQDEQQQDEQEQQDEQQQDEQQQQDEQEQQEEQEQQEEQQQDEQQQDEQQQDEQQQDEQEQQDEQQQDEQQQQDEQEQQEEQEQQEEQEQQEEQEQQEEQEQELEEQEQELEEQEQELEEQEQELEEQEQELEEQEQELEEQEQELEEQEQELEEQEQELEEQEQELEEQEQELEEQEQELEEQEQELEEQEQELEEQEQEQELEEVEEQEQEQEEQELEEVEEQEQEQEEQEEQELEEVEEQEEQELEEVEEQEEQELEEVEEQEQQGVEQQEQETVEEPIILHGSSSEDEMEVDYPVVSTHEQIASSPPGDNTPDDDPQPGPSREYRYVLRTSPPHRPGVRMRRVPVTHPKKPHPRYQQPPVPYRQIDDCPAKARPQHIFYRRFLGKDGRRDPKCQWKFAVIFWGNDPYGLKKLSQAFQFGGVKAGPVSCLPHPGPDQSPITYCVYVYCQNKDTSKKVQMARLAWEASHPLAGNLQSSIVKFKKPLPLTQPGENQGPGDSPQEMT
A1 inh: caspase 3/7 activation in MEF A1-2A-BIM cells, primary screen, A1 inhibitor project, cell-based, luminescence, HTS | 330,000 compounds, 0.066% hits | caspase activation, % (concentration not given with the values) | Caspase-Glo 3/7 luminescence, 3 h; percent of clofoctol response, vehicle zero;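 active means over half of replicate activation scores above 10%, or exactly half above 10 with the replicate mean above 10; inconclusive means replicate mean below 10 yet half the replicates above 10; inactive means over half of replicates below 10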;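 further: wells of about 30 µL received 50 nL stock; many hits fall short of the cut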
T cruzi inh: inhibitors of intracellular T. cruzi growth, primary screen, luminescence, NIH3T3 host cells | T. cruzi beta-gal in NIH3T3, 90 h | inhibition, % (no concentration beside the values) | 300,000 compounds, 1.4% hits;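 active means mean inhibition across valid replicates above about 55%, limit read from the data; inconclusive means mean below that limit but half or more replicates reach it; inactive means mean below it, under half of replicates reach it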;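 further: signal also drops with host cell toxicity which is not excluded here; 0% = plate median of DMSO wells and 100% = zero luminescence signal; higher percent means less beta-gal luminescence so fewer parasites; stock transfer was 50 nL into about 50 µL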
Vif TR-FRET: inhibitors of Vif binding to APOBEC3G peptide, primary screen, biochemical, TR-FRET, GST-Vif 1-94, biotin-A3G peptide, dose response retest (AID 1117319). Virion infectivity factor (Human immunodeficiency virus type 1 group M subtype B (isolate …. TR-FRET GST-Vif / biotin-A3G peptide binding; higher % means a stronger effect; test concentration not given here; strong numbers were not always called active. one-dose inhibition, %; IC50 in µM for titrated hits. 260,000 compounds, 0.57% hits;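 active means above the screen mean plus three standard deviations and confirmed in dose response; inconclusive means results disagree or hit not tested in dose response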;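 further: Vif residues 1-94 fused to GST binding biotinylated APOBEC3G peptide 110-148; 0% = full assay without inhibitor and 100% = GST in place of GST-Vif; retest series ran down from 100 µM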
RanGTP-Imp inh: inhibitors of RanGTP-importin-beta interaction, primary screen, biochemical, FRET, CFP-Ran, YFP-importin-beta, homogeneous; Ran GTPase (GTP-bound) - importin-beta complex; cell-free CFP-Ran/YFP-importin-beta FRET ratio; inhibition, % (test concentration not listed); 300,000 compounds, 1.1% hits;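 active means most replicates above 15%; inconclusive means exactly half above 15%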;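 further: 0% = DMSO wells and 100% = Ran loaded with GDP instead of GTP; wells of about 40 µL received 100 nL stock; the first replicate is given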
* marks the source's active call; other numbers are inactive results; ? = inconclusive; . = not tested or not shown.

SMILES	Calb FLC	Beta cell apopt	MLL AF4-AF9 inh	LANA-H2B inh	A1 inh	T cruzi inh	Vif TR-FRET	RanGTP-Imp inh
COc1nc(-c2ccccc2)ccc1-c1noc(-c2cccs2)n1	-8	1	.	2.0	-1.9	11	.	6.3
COC(=O)[C@@H](NC(=O)NCc1ccccc1Cl)C(C)C	4	4	.	1.2	0.0	-2	0%	-0.7
C[C@@H](NC(=O)c1nc[nH]c1C(=O)N1CCN(C(=O)OC(C)(C)C)CC1)c1ccccc1	.	-2	1.4	2.5	0.4	.	.	.
O=C(O)C1=CC[C@@H](c2ccc(Cl)cc2)N(S(=O)(=O)c2ccc(Cl)cc2)[C@H]1c1cccc(Cl)c1	.	2	-1.2	-1.3	-0.1	.	.	.
CCn1cnc2cc(NCc3ccc(Br)cc3)ccc21	11	1	23	4.3	-0.8	11	.	?
O=C(COC(=O)c1cnc(Cl)c(Cl)c1)NCc1ccc2c(c1)OCO2	-13	-6	1.1	-4.4	0.7	-2	-10%	0.5
Cc1cc(C)c2nc(N3CCC(C(=O)NCCN4CCOCC4)CC3)sc2c1	5	-1	-1.5	0.8	0.0	7	.	?
O=C(COc1ccc2ccc(=O)oc2c1)Nc1cccc(S(=O)(=O)N2CCCCC2)c1	.	1	-0.1	-1.4	1.1	.	-16%	.
COc1ccc(C)cc1S(=O)(=O)N1CCN(Cc2ccccc2)CC1	-13	0	.	2.2	-0.7	29	-2%	4.4
Cc1cc(C(=O)Nc2cccc3ccccc23)n(-c2ccccc2)n1	-5	0	-2.3	-0.4	0.2	1	-4%	2.5
O=C(O)CN=C(NS(=O)(=O)c1ccccc1)c1ccccc1	-4	0	.	3.7	0.7	-24	2%	?
Cc1cc(=O)oc2cc(NC(=O)C(C)Oc3cccc(Cl)c3)ccc12 (stereo not drawn)	8	.	-1.0	0.4	0.5	-1	-7%	3.4
Cc1cnc(C(=O)OCC(=O)NCc2ccc3c(c2)OCO3)cn1	0	2	-13	-0.9	0.5	-7	2%	-3.8
CCN(CCO)C(=S)Nc1cc(C(=O)OC)ccc1C(=O)OC	0	1	.	-5.0	-1.0	-16	1%	16*
O=[N+]([O-])c1ccc(-c2cn3nc(-c4ccccc4)c(-c4ccccc4)nc3n2)cc1	-1	1	-2.1	11	0.0	-4	-8%	42*
O=C(COC(=O)c1ccccc1)Nc1cc(Cl)ccc1Oc1ccccc1	-10	0	-1.4	8.2	0.5	-2	?	-0.2
Cc1ccc(CCNC(=O)CN(c2cc(C)cc(C)c2)S(=O)(=O)c2c(C)noc2C)cc1	-2	3	1.5	-2.8	0.7	16	.	3.9
CCN1CCN(Cc2c(O)ccc3c2O/C(=C\c2ccc(C)cc2)C3=O)CC1	0	-6	.	6.9	-0.1	-7	.	22*
C/C(=N\S(=O)(=O)c1ccc(C)cc1)N1CCN(S(=O)(=O)c2ccccc2)C1C(C)C (stereo not drawn)	3	1	0.8	-4.9	-0.4	-2	12%	0.3
Cc1ccccc1NS(=O)(=O)c1cc(C(=O)NCc2ccco2)ccc1C	0	-2	.	3.2	0.5	6	9%	-2.1
CC(=O)N1CCN(S(=O)(=O)c2ccc(S(=O)(=O)NC3CCCCC3)cc2)CC1	1	-1	-1.6	1.6	0.2	-10	.	-1.4
CC1CC(C)CN(CCCNC(=O)c2ccc(CS(=O)(=O)Cc3cccc(Cl)c3)o2)C1 (stereo not drawn)	-3	3	-0.6	-1.4	1.7	5	-2%	2.4
Cc1cccc(/C(N)=N/OC(=O)Cc2ccccc2)c1	19	3	-0.1	-0.2	-1.2	-4	.	2.8
Cc1cccn2c(=O)c3cc(C(=O)NC4CCCC4)c(=N)n(Cc4ccc(F)cc4)c3nc12	6	31	-4.3	7.6	-0.8	36	.	178*
COc1ccc2c(c1)CC(=O)NC=C2	-22	-1	-3.5	1.6	-0.5	-19	18%	-1.4
COc1cc(NC(=O)CN(c2cc(C)cc(C)c2)S(=O)(=O)c2c(C)noc2C)cc(OC)c1	1	8	-2.2	-1.3	0.7	27	7%	-0.7
CC(C)OCC(O)CN1CCN(C(c2ccccc2)c2ccccc2)CC1 (stereo not drawn)	?	1	2.6	3.5	1.5	-28	.	4.6
COc1ccc(NC(=O)C2CCN(C(=O)NC3CCCCC3)CC2)c(OC)c1	5	3	.	2.6	2.4	-1	0%	-2.2
O=[N+]([O-])c1ccc(Oc2ccc(S(=O)(=O)N3CCOCC3)cc2)cc1	1	5	3.2	2.6	-0.2	-10	.	-2.6
COC(=O)C1CCN(C(=O)c2cc(=O)[nH]c3ccccc23)CC1	12	-1	-3.9	-1.8	-2.2	-15	-2%	-2.8
Cn1c(=O)n(CC(N)=O)c(=O)c2c1nc(Br)n2Cc1ccccc1	2	.	0.1	-0.1	-0.6	-3	.	1.7
Cc1cc(=O)[nH]c(SCC(=O)Nc2ccc(Br)cn2)n1	?	1	.	-0.6	0.3	7	1%	6.4
CCOC(=O)CN1CC23C=CC(O2)C(C(=O)Nc2ccc(C(C)=O)cc2)C3C1=O (stereo not drawn)	4	2	8.1	5.5	0.0	-12	-3%	3.7
O=C(CSc1nc2[nH]ncc2c(=O)[nH]1)Nc1ccc(Cl)cc1	-4	.	-0.8	-5.5	0.8	2	-9%	2.4
COc1cc(C(=O)N2CCc3ccccc32)ccc1OCc1c(C)noc1C	4	3	0.2	-1.5	1.3	-1	7%	-0.6
Cc1cc(C(F)(F)F)n2nc(C(=O)O)c(Cl)c2n1	-12	-2	.	-0.7	-0.4	-28	80µM*	-2.6
CSCCC(NS(=O)(=O)c1ccc2c(c1)OCCO2)C(=O)N(C)Cc1ccc(C)cc1 (stereo not drawn)	14	1	2.1	-2.1	-0.1	18	.	-1.2
COCCCNCCCCOc1ccc(OCc2ccccc2)cc1	?	6	7.0	-2.7	1.3	44	-4%	?
Cc1ccc(S(=O)(=O)N(Cc2cccc(Cl)c2)C(=O)N2CCN(C)CC2)cc1	-1	.	2.3	3.5	-0.9	-3	-2%	-0.4
N#Cc1sc2nc(-c3cccs3)cc(-c3ccccc3)c2c1N	?	4	7.5	-4.0	-0.5	28	-6%	-56
S=C(NCc1ccco1)Nc1cccc(Cl)c1	-17	8	.	1.2	-0.5	21	-2%	1.6
CCOc1ccc(C(=O)Nc2cc(Cl)ccc2-n2cncn2)cc1OC	-10	1	0.8	-4.9	0.7	1	17%	-0.9
COC(=O)COc1ccc2cc(-c3ccc(OC)cc3)c(=O)oc2c1	-1	-3	-3.5	-6.0	-1.6	-6	.	0.2
Nc1nonc1-n1nnc(C(=O)N/N=C/c2cccc(Cl)c2)c1CN1CCCCCC1	-1	5	-1.6	1.9	0.4	5	18%	-5.1
COCCn1c(C)cc(C2=NNC(=Nc3ccc(OC)cc3)SC2)c1C	?	-31	.	-2.1	0.0	28	1%	-3.6
CCC(C)NC(=O)CNS(=O)(=O)c1ccc(C)cc1 (stereo not drawn)	-3	2	.	-0.5	0.8	1	?	9.0
CC(=O)Nc1cccc(C(=O)/C=C/c2ccc[nH]2)c1	-5	2	.	-3.3	-2.5	-3	.	?
O=C(C1CC1)N1CCN(c2ccc(O)cc2)CC1	-9	4	0.2	-2.2	-0.4	-2	.	5.9
CCOC(=O)Oc1ccc2c(=O)c(Oc3cccc(C)c3)coc2c1	45	-5	2.2	-4.6	0.2	-20	0%	6.3
Cc1ccc(C)c(Cn2ncc3ccccc32)c1	-5	-2	-4.3	3.0	0.9	-8	-5%	1.9

(more compounds)
SMILES	Calb FLC	Beta cell apopt	MLL AF4-AF9 inh	LANA-H2B inh	A1 inh	T cruzi inh	Vif TR-FRET	RanGTP-Imp inh
Cc1ccc2[nH]c(C)c(CCNC(=O)C3CCCCC3C(=O)OCC(F)(F)F)c2c1 (stereo not drawn)	4	-1	.	-5.5	0.5	6	.	1.3
COc1ccc(CCNC(=O)CS(=O)(=O)c2cn(CC(=O)N(C(C)C)C(C)C)c3ccccc23)cc1OC	-10	5	-1.7	2.7	1.4	26	.	2.0
Cn1cc(Cl)c(C(=O)N/N=C/c2ccc3c4c(cccc24)CC3)n1	.	2	.	-0.4	-2.2	21	.	2.5
Cc1ccc(C(C)C)c(OCC(=O)NN2C(=O)c3ccccc3C2=O)c1	36	-4	5.7	5.9	1.4	-2	-4%	1.2
Cc1ccc(N(C(=O)Cn2nnc3ccccc32)C(C(=O)NC2CCCCC2)c2cn(C)nc2C)cc1 (stereo not drawn)	21	-1	-3.4	3.9	0.5	11	4%	3.3
Cc1nnc(SCC(=O)Nc2ccc(-c3nc4ccccc4s3)cc2)s1	3	-1	-1.1	8.9	-9.6	-16	-7%	-0.3
CSc1c(C#N)c(N)c(C#N)c2c1COC(C)(C)C2	-12	0	3.1	5.7	-0.5	-8	1%	6.3
CCCN1C2CCCC1CC(NC(=O)c1cc(OC)c(OC)c(OC)c1)C2 (stereo not drawn)	-6	-2	.	4.7	0.3	4	9%	7.6
NC12NC(=O)C3(O)C4C5CC(C6C5C3C61)C42 (stereo not drawn)	-1	2	0.5	2.9	0.1	-12	13%	-4.6
COc1cc(/C=N/N(C)S(=O)(=O)c2ccc(C)cc2)cc([N+](=O)[O-])c1O	-1	-3	31*	2.2	0.2	-7	?	-3.1
COc1ccc(C(=O)CC(=O)C(=O)Nc2ccccc2)cc1	4	-1	-0.3	8.2	0.3	-3	4%	2.0
O=C(NC(=S)Nc1ccccc1N1CCOCC1)c1ccc(-c2cc(Cl)ccc2Cl)o1	-21	7	.	-0.9	1.0	44	.	-0.4
CC(Sc1nnnn1-c1ccc(O)cc1)C(=O)NC1CCCCC1C (stereo not drawn)	-11	-1	0.0	0.8	1.7	-4	.	5.6
CC(=O)NC12CC3CC(C1)CC(C(=O)N1CCN(C(=O)c4ccco4)CC1)(C3)C2	.	-5	2.2	-0.8	0.3	.	-9%	.
CC1Cc2ccccc2N1Cc1cc(=O)c(OCC(=O)Nc2ccccc2)co1 (stereo not drawn)	-11	-1	0.2	.	0.0	-2	-2%	1.6
O=C(O)C12C[C@H]3C[C@@H](C1)CC(n1ncc(N4CCN(c5ccccc5)CC4)c(Cl)c1=O)(C3)C2	5	-2	.	2.5	1.1	-6	.	-3.9
CCOC(=O)CSc1nc(C)cc(C)c1C(N)=O	1	0	-1.5	1.9	-0.7	-9	6%	5.8
COC(=O)CCN(C(=O)c1ccc(Cl)c([N+](=O)[O-])c1)c1ccccn1	-10	-6	1.9	2.0	0.3	-11	21%	1.1
CCOc1ccccc1CNC(=O)c1ccccc1NC(=O)C1=CSCCO1	-22	1	7.9	0.2	0.8	39	.	1.7
COc1ccc(CC(=O)N(C)CC(=O)Nc2ccccc2Cl)cc1S(=O)(=O)N1CCOCC1	.	1	8.6	3.1	0.1	.	1%	.
